# S aureus helic = blocks Staphylococcus aureus DNA helicase. purified S. aureus helicase, fluorescence unwinding assay; about half of the hits fall short of the stated cut. inhibition, %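 (tested at about 80 µM)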. actives 0.05% (n = 120,000);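 active = both duplicates at 50% or more, or one of them with a favoured structure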;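 also: 0% = mean of negative control wells and 100% = mean of positive control wells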
# MgrA-DNA mod = alters Staphylococcus aureus MgrA binding to DNA. AID 602314. actives 0.13% (n = 84,000). fluorescence polarization. inhibition, %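 (about 10 µg/mL by stock and volumes)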;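 active = above 50% in either of two replicates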;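 also: 0% = protein plus DNA without compound and 100% = DNA alone without protein; higher means less MgrA bound to DNA so lower polarization; one replicate is shown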
# The depositor's hits bear a star; nt = not tested or not shown. An excerpt, so the mix of outcomes need not match the whole.
# Under each structure: S aureus helic, MgrA-DNA mod
CC(C)COC1C(=O)CCCC1CC(=O)O (stereo not drawn)
    18.0, -2.8
COc1ccc(S(=O)(=O)N(C)S(=O)(=O)c2ccc3ccccc3c2)cc1
    3.0, nt
CN(C)CCCN1CNC(=S)NC1
    8.0, nt
Cc1nc2sccn2c1C(=O)c1ccccc1
    -17.0, -1.2
Cc1cccc(NC(=O)c2ccccc2)c1C(=O)O
    nt, -1.2
CC(=O)Oc1cccc(-c2nc(C(N)=O)c(N)o2)c1
    -13.0, nt
CC1=NN(c2ccc(Cl)cc2)C(=O)C12Cc1c(C)nn(-c3ccccc3)c1N1CCCC12 (stereo not drawn)
    -13.0, nt
CCOC(=O)Cc1ccc2sc(-c3ccccc3)nc2c1
    20.0, -0.7
CN(C)c1ccc(/C=C2/SC(=O)N(CCN=C3NS(=O)(=O)c4ccccc43)C2=O)cc1
    -16.0, 5.0
OCCN1CCN(CC#CCC(c2ccccc2)c2ccccc2)CC1
    1.0, nt
O=C(NC1CCCCCCC1)c1ccc(CNS(=O)(=O)c2ccc(F)cc2)cc1
    6.0, 0.3
O=S(=O)(c1cccc2nsnc12)N1CCN(C/C=C/c2ccccc2)CC1
    -10.0, nt
O=C(CCC(=O)Nc1cccc2ccccc12)Nc1cccc2ccccc12
    24.0, -5.2
Cc1cc(C(=O)COC(=O)c2ccc3c(c2)C(=O)N(Cc2ccco2)C3=O)c(C)n1C
    20.0, nt
O=C1/C(=C\c2ccc(Br)o2)CCC/C1=C\c1ccc(Br)o1
    20.0, nt
Cc1sc2nc(SCC(=O)NC3CCCCC3)[nH]c(=O)c2c1C
    4.0, nt
CN1C(=O)NC(=O)/C(=C/c2ccc(F)cc2)C1=O
    -6.0, 15.4
Cc1ccc(-c2n[nH]c3c2C(c2ccccc2Cl)N(c2ccc(Cl)cc2)C3=O)cc1 (stereo not drawn)
    12.0, -0.2
CCOc1nc(SC)nc2sc3c(c12)CC(C)(C)OC3
    4.0, -5.4
CC1=C(C(=O)OCc2ccc3c(c2)OCO3)C(c2cccc3ccccc23)NC(=O)N1 (stereo not drawn)
    nt, -1.3
Cc1oc2cc(OCC(=O)O)ccc2c(=O)c1-c1ccc(Br)cc1
    0.0, nt
O=C(COC(=O)C1CCN(S(=O)(=O)c2ccc3c(c2)OCCO3)CC1)Nc1cc(C(F)(F)F)ccc1Cl
    -10.0, nt
Cc1cccc(N2C(=O)c3cccc4c(N5CCNCC5)ccc(c34)C2=O)c1
    -82.0, 29.9
Cc1cnc(C(=O)OCc2ccc(Br)cc2)cn1
    2.0, nt
OCCCNc1nnc(-c2ccccc2)c2ccccc12
    16.0, nt
CCOC(=O)N1CCN(C(=O)CCCn2c(=S)[nH]c3ccc(Br)cc3c2=O)CC1
    -3.0, 0.0
O=C(c1ccc(COc2ccc(F)cc2)o1)n1cccn1
    12.0, nt
Cc1ccc(C(=O)Nc2ccc(-c3nnc4n3CCCCC4)cc2)cc1
    7.0, nt
CN(C)/C=C1\N=C(c2cccnc2Oc2ccc(Cl)cc2)OC1=O
    nt, 0.8
O=C(c1ccc(=O)[nH]n1)N1CCc2ccccc21
    -13.0, nt
CC(CN)(NS(=O)(=O)c1ccccc1)c1ccccc1 (stereo not drawn)
    2.0, -2.2
O=C(Nc1ccccc1C(F)(F)F)C1CCC1
    -1.0, -3.0
COc1cc(C(F)(F)F)c(C(=O)N(C)Cc2cccc(Cl)c2)cn1
    nt, -0.2
NS(=O)(=O)c1ccc(NC(=O)CC2SC(=O)NC2=O)cc1 (stereo not drawn)
    -8.0, 0.1
CC(=O)N1CC=C(c2c(C)[nH]c3ccccc23)CC1
    15.0, nt
O=C1Nc2ccccc2/C1=C\c1ccccc1N1CCN(Cc2ccccc2)CC1
    nt, -0.7
CCCc1cc(NCC2CCCO2)n2c(nc3ccccc32)c1C#N (stereo not drawn)
    1.0, nt
COc1ccc(S(=O)(=O)N2CCc3ccccc3C2)cc1OC
    -24.0, nt
N#Cc1ccsc1NC(=O)COc1ccc(-c2nnco2)cc1
    -9.0, nt
COc1ccc(-c2csc(C(C#N)=C(SC)SC)n2)cc1
    -34.0, nt
O=C(O)CNS(=O)(=O)c1cccc2nsnc12
    nt, -1.9
Cc1ccc2cc(C3=NN(C(=O)CCC(=O)O)C(c4ccc(Br)cc4)C3)c(Cl)nc2c1 (stereo not drawn)
    nt, 0.1
CC(C)C1N(C(=O)N(C)C)CCN1S(=O)(=O)c1ccccc1 (stereo not drawn)
    10.0, 2.8
CCOc1ccc(N(CC(=O)Nc2ccccc2)S(C)(=O)=O)cc1
    12.0, 0.5
OC(COCc1ccccc1F)CN1CCCC1 (stereo not drawn)
    7.0, -0.1
CC1CCN(C(=O)c2ccc3nc(N4C(=O)CCC4=O)sc3c2)CC1
    3.0, 1.4
COCCn1c(O)c(C(C)=NCC(C)(C)N2CCOCC2)c(=O)[nH]c1=S
    3.0, nt
CN(C1CCCCC1)S(=O)(=O)c1ccc(N)cc1
    2.0, -3.2
Cc1noc2nc(-c3cccs3)cc(C(=O)NNC3=NCCCCC3)c12
    -22.0, nt
Cc1cc(=O)oc2cc(OC(C)C(=O)NC3CCCCCC3)ccc12 (stereo not drawn)
    9.0, 4.5

# The list continues:
# Under each structure: S aureus helic, MgrA-DNA mod
O=S(=O)(c1ccc(F)cc1)N1CCc2[nH]c3ccc(F)cc3c2C1
    17.0, nt
CN(C)CCn1c2c(c(SCC(=O)NCc3ccccc3)nc1=O)CCCC2
    7.0, nt
COc1ccc(-c2nn[nH]n2)cc1OC
    13.0, nt
O=C(O)c1cc(=O)n(CN2CCC(Cc3ccccc3)CC2)c(=O)[nH]1
    -14.0, nt
Cc1ccc(C)n1-c1cc(Cl)ccc1N1CCCCC1
    -15.0, nt
CCN(CC)S(=O)(=O)c1ccc2c(c1)nc(SCC(=O)NC1CC1)n2-c1ccccc1OC
    14.0, nt
c1ccc(CCN2CCN(CCc3ccccn3)CC2)nc1
    15.0, nt
CC(NCCN1C(=O)S/C(=C\c2ccccc2F)C1=O)=C(C#N)C#N
    -14.0, nt
O=c1[nH]n(CNc2ccc(F)cc2)c(=O)c2ccccc12
    8.0, 7.6
O=C(CN1C(=O)CSCC1=O)NCc1ccc(F)cc1
    9.0, nt
COc1cc(-c2nc3ncccn3c2Nc2ccc(OC)c(OC)c2)ccc1O
    13.0, nt
COCCn1ccc2nc(C)c(C(=O)Nc3ccccc3)cc2c1=O
    1.0, nt
COC(=O)c1sc(SC)c(C#N)c1-c1ccc(Br)s1
    -6.0, nt
CCc1ccc(-n2cc3c(c(C#N)c2=N)CC(C)(C)CC3=O)cc1
    2.0, -3.5
O=C(NCc1ccc(S(=O)(=O)NCCN2CCOCC2)s1)c1ccccc1
    nt, 0.4
O=C1C2C3C=CC(C3)C2C(=O)N1CCC1=CCCCC1 (stereo not drawn)
    13.0, 1.7
Cc1nc2c(C#N)ncn2c(C)c1Cc1cccc(F)c1
    nt, -2.8
CCOC(Cn1c(C)nc2ccccc21)OCC
    -5.0, nt
Cc1nn(CCCC(=O)NCCc2cccs2)c(=O)c2c1sc1ccccc12
    -1.0, nt
COc1cc(NS(=O)(=O)c2ccc(NC(=S)NC(=O)c3ccco3)cc2)ncn1
    10.0, -2.0

# 6 structures out of the list, ordered by length of the SMILES, high to low:
# Under each structure: S aureus helic, MgrA-DNA mod
Cc1ccc2cc(C3=NN(C(=O)CCC(=O)O)C(c4ccc(Br)cc4)C3)c(Cl)nc2c1 (stereo not drawn)
    nt, 0.1
O=C1Nc2ccccc2/C1=C\c1ccccc1N1CCN(Cc2ccccc2)CC1
    nt, -0.7
O=c1[nH]n(CNc2ccc(F)cc2)c(=O)c2ccccc12
    8.0, 7.6
CC(=O)Oc1cccc(-c2nc(C(N)=O)c(N)o2)c1
    -13.0, nt
O=C(c1ccc(=O)[nH]n1)N1CCc2ccccc21
    -13.0, nt
c1ccc(CCN2CCN(CCc3ccccn3)CC2)nc1
    15.0, nt

# The results go on.
# Under each structure: S aureus helic, MgrA-DNA mod
CCCSc1nsc(NC(=O)c2cnc3ccccc3n2)n1
    4.0, nt
O=C(CSc1nnc(C2CC2)n1C1CC1)c1ccc2c(c1)OCO2
    11.0, nt
O=C(COc1ccccc1)N1CCCCCCC1
    3.0, 0.3
CC(C)C(=O)Nc1ncnc2nc[nH]c12
    nt, 0.3
CC1CC(C)CN(CCCNC(=O)c2cc3c(=O)[nH]c4ccccc4c3s2)C1 (stereo not drawn)
    13.0, 4.6
COC(=O)c1nnn(CC(=O)Nc2ccc3c(c2)OCO3)c1C(=O)OC
    2.0, nt
O=C(Nc1c[nH]c(=O)[nH]c1=O)C1CCCO1 (stereo not drawn)
    7.0, -1.7
Clc1ccc(OCCn2ccnc2)c(Br)c1
    9.0, -4.5
COc1c(F)c(F)c(C(=O)Nc2ccc(-c3nc4ccccc4o3)cc2)c(F)c1F
    7.0, 1.3
COc1cc(NC(C)C(=O)N2CC(C)CC(C)C2)c(OC)cc1Cl (stereo not drawn)
    6.0, nt
O=C(Nc1ncn(Cc2ccccc2)n1)c1cc([N+](=O)[O-])cc([N+](=O)[O-])c1
    nt, 1.6
COc1cc(OC)c(NC(=O)c2ccc3c(SCC(=O)O)c4c(nc3c2)CCCC4)cc1Cl
    5.0, nt
CC1(C)CC(=O)C2=C(C1)N(c1ccc(S(N)(=O)=O)cc1)C(N)=C(C#N)C2c1ccco1 (stereo not drawn)
    7.0, nt
O=C(COC(=O)c1ccc(CO)cc1)Nc1ccccc1
    9.0, nt
O=C1OC2(CCCCC2)OC1c1ccccc1 (stereo not drawn)
    18.0, nt
CCCCN(S(=O)(=O)c1ccccc1)S(=O)(=O)c1ccccc1
    8.0, nt
O=c1ccc(-c2ccc(S(=O)(=O)NCCc3ccccc3)s2)n[nH]1
    29.0, nt
CC(CN1CCCC1)OC(=O)c1cccc(Br)c1 (stereo not drawn)
    17.0, nt
CCc1c(C)nc2cc(-c3cc(OC)cc(OC)c3)nn2c1NCCCN(CC)CC
    10.0, 0.9
CCOc1cc(/C=C2\COc3ccccc3C2=O)ccc1OCC(=O)N(C)C
    -4.0, nt
CCOc1ccc(NC(=O)C2CC(=O)OC2c2ccccc2)cc1 (stereo not drawn)
    9.0, 0.2
COC(=O)c1sccc1NC(=O)CC(C)(C)CC(=O)O
    nt, -0.6
CC(COc1nnc(-c2cccs2)o1)NC(=O)Cn1nnc2ccccc2c1=O (stereo not drawn)
    -33.0, nt
O=Nc1c(O)n(Cc2ccccc2)c2ccccc12
    16.0, nt
CCOC(=O)c1[nH]nc(C(=O)c2ccc(Br)cc2)c1O
    17.0, nt
NS(=O)(=O)c1ccc(NC(=O)N2CCCCC2)cc1
    3.0, 2.9
CC(C)NC(=O)COc1ccc(-c2ccccc2)cc1
    -13.0, 0.8
CC(C)(CO)N=Cc1c(O)[nH]c2ccccc12
    10.0, 0.1
c1ccc(-c2ccc3c4ccccc4cc-3o2)cc1
    nt, 0.0
O=C(NC(=S)NC1CCSC1=O)c1ccco1 (stereo not drawn)
    -5.0, 0.4
O=C(OCC(=O)N1CCN(S(=O)(=O)c2ccccc2)CC1)C1CCCCC1
    24.0, nt
CCN1C(=O)CC(NC2CCN(C(=O)c3cccs3)CC2)C1=O (stereo not drawn)
    7.0, 1.1
CS(=O)(=O)CC(=O)c1ccc(F)cc1
    nt, 1.4
CC/C(=N/O)C(=O)c1ccc(Br)cc1
    16.0, -2.0
COCCn1cnnc1SCC(=O)O
    -20.0, nt
COC(=O)Cc1ccc(C#N)n1C
    -22.0, -0.4
CC(=O)N(Cc1ccco1)C1(C(=O)NC2CCCC2)CCCCC1
    9.0, nt
Cc1ccccc1NC(=S)N/N=C/c1ccc(O)cc1O
    -6.0, nt
Clc1nc(CN2CCOCC2)nc2sc3c(c12)CCC3
    -5.0, nt
CCOC(=O)c1ccc(-c2ccc(/C=C3\SC(=S)NC3=O)o2)cc1
    21.0, nt
CC(C)c1ccc(-n2ncc3ccccc3c2=O)cc1
    nt, -1.3
C/C(=N\Nc1nc(C(C)(C)C)cs1)c1ccc(F)cc1
    nt, 2.1
O=C(/C=C/c1ccccc1)Nc1ccccc1N1CCCC1
    -3.0, -1.4
COc1ccc(Nc2ncc(C#N)c(Nc3ccccc3)c2C#N)cc1
    4.0, 2.6
N#CCSc1cn(CC(=O)N2CCCC2)c2ccccc12
    2.0, nt
Cc1ccc(C(=O)OCC(=O)c2ccccc2)cc1NC(=O)c1ccco1
    -10.0, nt
O=C(OCCN1CCCCC1)c1ccc2c(c1)OCO2
    14.0, nt
O=C1NN(c2ccccc2)C(SCc2ccccc2Cl)=Nc2ccccc21
    nt, 0.7
COc1ccc(OC)c(S(=O)(=O)NC2CC(=O)N(c3ccc(C)c(C)c3)C2)c1 (stereo not drawn)
    5.0, nt
O=C(Nc1ccc(OC(F)(F)F)cc1)N1CCC(O)CC1
    nt, 0.2

# New compounds follow:
# Under each structure: S aureus helic, MgrA-DNA mod
O=C(C1CCC1)N1CCc2cc(S(=O)(=O)NC3CCCC3)ccc21
    1.0, 0.2
COC(=O)c1ccc(Cl)cc1NC(=O)c1ccccc1Cl
    nt, -0.3
Cc1ccc(C)n1C1CCCCC1
    0.0, -0.2
S=C(Nc1ccc(Cl)cc1Cl)N1CCCC1c1cccs1 (stereo not drawn)
    nt, 2.8
O=C(Nc1ccccc1C(F)(F)F)c1cnccn1
    -2.0, 2.0
COc1ccc(/C=C(\C#N)C(N)=S)cc1
    -5.0, nt
O=C(O)c1ccc(-c2ccccn2)s1
    nt, -0.2
CC(C)C(=O)NC(=S)Nc1ccc(Cl)cc1
    6.0, -1.7
CC1=C(C(=O)OC(C)C)C(c2ccc(C(C)C)cc2)C(C#N)=C(N)S1 (stereo not drawn)
    3.0, 0.4
Oc1cc2c(cc1C(Nc1ccccn1)c1ccc3c(c1)OCO3)OCO2 (stereo not drawn)
    4.0, -4.8

# Compound activity deposited in PubChem by ICCB-Longwood Screening Facility, Harvard Medical School.
